From PubChem BioAssay
Mtb bLac sens: beta-lactam sensitization of Mtb H37Rv; actives 0.27% (n = 330,000); inhibition, % at 25 µM; M. tuberculosis H37Rv growth with meropenem, percent inhibition; hits of this screen are not shown here;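 active = about 74% or more and at least 40 points above the plate without the antibiotic, then above 30% in a dose series; inconclusive = first-round hits that could not be retested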;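 note: growth measured after seven days incubation then overnight dye step; 0% = bacteria only wells and 100% = bacteria with antibiotic; twin plates without the antibiotic show which effects depend on it; some results filed as inactive read as strong as hits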
RecA intein inh: blocks M. tuberculosis RecA intein splicing; inhibition, %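 (about 9 µM by stock and volumes)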; actives 0.75% (n = 290,000); cell-free RecA intein splicing, fluorescence; P9WHJ3; AID 2221; in the data active = inhibition above about 30%; inconclusive = no clear call, values can overlap the other calls;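 note: 0% = vehicle wells and 100% = reference inhibitor control wells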
Target sequence (P9WHJ3 whole entry, looked up): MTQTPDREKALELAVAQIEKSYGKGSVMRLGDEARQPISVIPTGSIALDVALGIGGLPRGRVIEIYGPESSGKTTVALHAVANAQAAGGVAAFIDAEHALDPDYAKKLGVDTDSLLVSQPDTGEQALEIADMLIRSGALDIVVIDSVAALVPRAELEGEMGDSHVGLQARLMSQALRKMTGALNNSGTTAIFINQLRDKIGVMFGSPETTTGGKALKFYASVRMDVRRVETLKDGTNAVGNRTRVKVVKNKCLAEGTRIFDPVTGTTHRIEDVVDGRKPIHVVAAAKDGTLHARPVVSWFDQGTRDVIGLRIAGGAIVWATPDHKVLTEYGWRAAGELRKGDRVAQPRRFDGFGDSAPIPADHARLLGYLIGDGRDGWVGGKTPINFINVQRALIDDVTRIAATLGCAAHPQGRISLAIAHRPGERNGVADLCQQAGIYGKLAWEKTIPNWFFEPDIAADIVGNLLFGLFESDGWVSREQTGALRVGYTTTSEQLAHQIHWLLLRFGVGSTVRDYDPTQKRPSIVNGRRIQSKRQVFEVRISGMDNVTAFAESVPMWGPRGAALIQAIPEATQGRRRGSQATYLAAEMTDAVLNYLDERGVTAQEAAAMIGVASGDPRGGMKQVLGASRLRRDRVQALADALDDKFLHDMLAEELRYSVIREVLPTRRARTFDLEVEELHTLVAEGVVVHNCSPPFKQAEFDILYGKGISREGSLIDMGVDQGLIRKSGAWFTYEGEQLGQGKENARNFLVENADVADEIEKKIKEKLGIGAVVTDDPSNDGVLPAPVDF
Mtb H37Rv: M. tuberculosis H37Rv growth inhibitors, H37Rv strain (AID 1626). M. tuberculosis H37Rv growth inhibition; higher % means a stronger effect. one-dose inhibition, % at 10 µM; IC50 in µM for titrated hits. actives 0.95% (n = 220,000);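 active = confirmed in a dose series; inconclusive = inhibition above 80% but not taken into the dose series; inactive = below 80% or under 30% at every dose of the series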;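 note: bacteria incubated seven days before Alamar blue readout; 0% = bacteria only wells and 100% = bacteria with antibiotic wells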
Arbovirus anti: antivirals against arbovirus infection. arbovirus infection cell-based antiviral screen. actives 0.37% (n = 200,000). inhibition, % at 10 µM. AID 1251;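 active = inhibition from about 30%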;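 note: bluetongue infection of BSR cells; cell survival read as ATP light after 72 h; 0% = infected wells without compound and 100% = uninfected wells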
YopH PTP inh: blocks Yersinia enterocolitica YopH tyrosine phosphatase; actives 0.16% (n = 140,000); AID 898; fluorescence Ex485/Em525; inhibition, %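 (about 10 µM by stock and volumes)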;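 active = inhibition of 50% or more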;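 note: controls were vehicle for no effect and minimum signal wells for full effect; inactives centre near -20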
Arbovirus anti repeat: further read-out of Arbovirus anti, marked with its call; inhibition, %; measured here: 10K subset replicate screen; many hits read low in the repeat;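 first of two repeat runs on a subset; 0% = infected and 100% = uninfected wells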
An asterisk follows results filed as active; ? = inconclusive; . = not tested or not shown. Not all compounds are listed; the hit share may differ from the screen's.

Preview:
SMILES	Mtb bLac sens	RecA intein inh	Mtb H37Rv	Arbovirus anti	YopH PTP inh	others
CCCC1CCc2c(c3ccccc3[nH]c2=O)O1 (stereo unspecified)	48	-1.1	4%	4	2
O=C(NC(C(=O)c1ccccc1)N1CCCCCC1)c1ccco1 (stereo unspecified)	-1	2.8	-22%	4	-10
CNCCOc1ccccc1OC(C)C	-2	-0.8	4%	0	.

Results, from the first entry:
SMILES	Mtb bLac sens	RecA intein inh	Mtb H37Rv	Arbovirus anti	YopH PTP inh	others
CCCC1CCc2c(c3ccccc3[nH]c2=O)O1 (stereo unspecified)	48	-1.1	4%	4	2
O=C(NC(C(=O)c1ccccc1)N1CCCCCC1)c1ccco1 (stereo unspecified)	-1	2.8	-22%	4	-10
CNCCOc1ccccc1OC(C)C	-2	-0.8	4%	0	.
CC(/C=C/C=C/c1ccccc1)=N/NC(=O)c1ccc2c(c1)OCCO2	1	-0.5	2%	.	.
CC1(C)CC(=O)C(C=NCCN2CCN(C(=O)Cc3ccccc3)CC2)=C(O)C1	-4	1.2	-9%	2	-41
CC1CCN(CCCNC(=O)C2CCN(S(=O)(=O)N3CCC4(CC3)OCCO4)CC2)CC1	-6	1.1	.	.	.
O=C(CSc1ccccc1C(=O)O)c1ccccc1	68	-1.6	.	.	.
COc1cccc(CNC(=O)c2ccc(C)c(S(=O)(=O)N3CCCCC3)c2)c1	-6	-4.7	.	.	.
CN(C(=O)COC(=O)C1CCN(S(=O)(=O)c2c(Cl)cccc2Cl)CC1)C1CCS(=O)(=O)C1 (stereo unspecified)	-14	0.0	.	.	.
O=C(NN=C1CCCC1)c1ccccc1O	0	0.0	.	.	.
Cn1nnnc1SCC(=O)NCc1cccs1	-10	11	-8%	1	-14
CC[C@H](C)[C@H](NC(N)=O)C(=O)Nc1ccc(S(=O)(=O)NC(C)C)cc1	2	-9.7	-16%	.	.
Brc1cc(Cc2nnc(-c3ccccc3)o2)c(Br)s1	-7	7.5	10%	.	.
COc1ccc(CNC(=O)c2ccc3c(c2)NC(=O)C(C)S3)cc1 (stereo unspecified)	1	3.8	-8%	.	.
O=C(Nc1ccccc1)Nc1ccccc1C(=O)NCC1CC1	1	1.0	-3%	.	.
C#CCN(C(=O)Nc1ccccc1)c1ccccc1	0	0.9	-3%	4	-22
COc1cc(-c2c(-c3ccc4c(c3)OCO4)noc2C)ccc1F	-7	9.3	.	.	.
N#Cc1c(Nc2ccccc2Cl)s[nH]c1=O	-4	-1.8	2%	.	.
Nc1ncc(Br)cc1Br	0	3.4	-4%	4	-31
O=[N+]([O-])c1ccc(Nc2ccc3ccccc3c2)nc1	5	0.8	5%	-6	-30
O=C(COc1ccccc1)Nc1ncccn1	3	-4.8	-3%	6	-20
N=c1ccn(Cc2cccc(F)c2)cc1	-11	1.9	5%	.	.
CCc1cccc(Nc2cc(C)nc3ncnn23)c1	-1	1.2	.	-1	-36	Arbovirus anti repeat=-4
Oc1ccccc1-c1nc2ccccc2nc1-c1ccccc1	2	5.0	4%	.	.
O=C(O)CCC(=O)Nc1ccc(S(=O)(=O)Nc2nccs2)cc1	3	-2.4	12%	1	-37
Cc1ccc(NC(=O)C(C)N2C(=O)c3ccccc3C2=O)cc1 (stereo unspecified)	4	-1.6	1%	0	-15
Cc1csc(=N)n1CC(=O)N1CCc2ccccc21	5	.	-3%	6	-27
O=C(NCc1ccccc1)c1cccn(Cc2cccc(Cl)c2)c1=O	-7	8.7	.	.	.
NC(=O)CN(c1ccccc1)C1SC(=O)N(Cc2ccccc2)C1=O (stereo unspecified)	-8	-1.8	1%	4	-25
CCc1nn(-c2ccccc2)c(N)c1C#N	2	-2.6	4%	-1	-24
O=C(Nc1cc(Cl)ccc1-n1cncn1)c1cc(F)cc(F)c1	1	1.2	.	.	.
CC(=O)Oc1cc2c(C(=O)NCCCN3CCOCC3)c(C)oc2c2ccccc12	-11	-20	4%	-35	42
COc1cccc(Nc2ncnc3sc(C)cc23)c1	-6	-2.2	.	.	.
Cc1ccccc1CN1C(=O)CS/C1=N/N=C/c1ccco1	-6	2.3	3%	.	.
CNc1nc(=S)[nH]c2ccccc12	-6	-1.8	.	.	.
Cc1ccc(C(=O)N/C(=C\c2cccnc2)C(=O)N2CCCC2)cc1	1	-0.3	.	.	.
CCOc1cc(S(=O)(=O)Nc2ncn[nH]2)ccc1Br	-17	-3.7	.	.	.
CN(C(=O)C1CCN(S(=O)(=O)c2ccccc2)CC1)c1c(N)n(Cc2ccccc2)c(=O)[nH]c1=O	-5	4.3	.	.	.
CC(NC(=O)C(c1ccccc1)c1ccccc1)C(=O)O (stereo unspecified)	-6	-0.1	-12%	-1	-52
O=C(NC1CCCC1)c1ccc2nc[nH]c2c1	-2	17	-7%	-8	-14
Cc1cc(NC(=O)COC(=O)c2cc([N+](=O)[O-])ccc2N2CCOCC2)ccc1Br	-1	3.2	.	.	.
COc1cccc(C(=O)N[C@@H](C)C(=O)N2CCC3(CC2)NCCc2[nH]cnc23)c1	7	3.7	.	.	.
Cc1ccc(C(=O)N2CCN(c3ccccc3F)CC2)cc1S(=O)(=O)N1CCOCC1	-2	1.6	6%	14	.
CCC(C(=O)NCc1ccc(F)cc1)N(CCc1ccccc1)C(=O)c1snc(C(N)=O)c1N (stereo unspecified)	0	5.8	.	.	.
Cc1c(C(C)NC(=O)Nc2ccc(F)cc2F)cnn1C (stereo unspecified)	9	1.1	-4%	-4	-24
CC(=O)Nc1ccc(Oc2sc(C(=O)c3ccccc3)c(N)c2C#N)cc1	5	15	14%	-10	-7
O=[N+]([O-])c1sccc1CS(=O)(=O)c1ccccc1	-5	0.2	1%	.	.
CC(=O)c1ccc(NCCC(=O)c2ccccc2)cc1	-2	2.8	53%	-10	.
CCCN1CCN(CCCNC(=O)c2ccc(NC(=O)C3=C(C)OCCS3)cc2)CC1	-5	-0.9	.	.	.
CCn1c2ccccc2c2nnc(SCC(N)=O)nc21	-5	-1.8	-12%	3	8
CC(=O)Nc1c(C)cc(OCC(=O)O)cc1C	-11	0.0	-12%	.	.
Cc1ccnc(NC(=O)CNC(=O)COc2ccccc2)c1	-4	-0.7	.	.	.
CCC1CCCCN1CCCNC(=O)C(C)n1nc(C)c2sc3ccccc3c2c1=O (stereo unspecified)	-1	2.9	.	.	.
Nc1ccc(-c2nnn(CC(=O)N3CCCCC3)n2)cc1	3	2.9	.	.	.
CCOc1ccccc1OCC(=O)Nc1cc(S(=O)(=O)N2CCCCC2)ccc1N1CCN(CC)CC1	-6	3.7	.	.	.
CC1Cc2ccccc2N1C(=O)CSc1nnc(NC(=O)Cc2cccs2)s1 (stereo unspecified)	-3	-6.2	-8%	7	-20
COc1cccc(C(c2nnnn2C(C)(C)C)N2CCN(C3CCCCC3)CC2)c1OC (stereo unspecified)	.	13	-11%	-2	-19
COc1cc(C(=O)N2CCN(C(=O)c3cc(-c4ccccc4)n[nH]3)CC2)cc(OC)c1OC	-6	-0.8	.	.	.
O=C(NCCC(c1ccccc1)c1ccccc1)c1cnccn1	-5	-0.2	-2%	-10	-17
O=C(NC(=O)c1ccccc1)Nc1ccc(-c2cnco2)cc1	-3	-0.6	.	.	.
Next section:
SMILES	Mtb bLac sens	RecA intein inh	Mtb H37Rv	Arbovirus anti	YopH PTP inh	others
CCc1ccc(-c2cc3c(=O)n(CC(=O)NCCCN4CCC(Cc5ccccc5)CC4)nc(C)n3n2)cc1	100	-10	.	.	.
Cn1c(N2CCN(S(=O)(=O)c3ccc(Cl)cc3)CC2)nc2ccccc21	4	0.1	4%	-6	.
COC(=O)C1(C)CCc2cc(OC)ccc2C1=O (stereo unspecified)	0	2.0	4%	7	-10
CCC(C)(C)NC(=O)CN(C(=O)CNS(=O)(=O)c1ccc(C)cc1)c1ccc2c(c1)OCCO2	4	0.8	-4%	4	3
O=C(NCCc1c[nH]c2ccccc12)C1Cc2ccccc2CN1C(=O)c1ccco1 (stereo unspecified)	?	4.3	1%	2	-32
CCC1CCC(C(=O)NNC(=O)OC)CC1 (stereo unspecified)	-8	0.9	-12%	4	-39
C=CCn1c(O)c(CN2CCN(Cc3ccccc3)CC2)c(C)c(C#N)c1=O	-6	0.6	-1%	3	-10
COCCNC(=O)CCCn1c(=O)c2cc(OC)c(OC)cc2n(CC(=O)NCCC2=CCCCC2)c1=O	-2	-6.0	-7%	3	.
Oc1ccc(N=Cc2ccc(OCc3ccccc3)cc2)cc1	0	46*	5%	-12	.
Cc1cc(/C=C(/C#N)C(=O)O)c(C)n1-c1cccc2ccccc12	-6	6.4	.	.	.
N#C/C(=C\c1cn(CC(=O)N2CCCCC2)c2ccccc12)C(=O)NCc1ccc2c(c1)OCO2	-4	-9.0	15%	-6	0
O=C(Nc1ccc(NC(=O)c2ccc(Cl)cc2Cl)cc1)c1ccc2c(c1)OCO2	8	0.7	.	.	.
COC(=O)CCCNC(=O)c1ccc2[nH]c(C)c(C)c2c1	-3	-0.6	-4%	-2	.
Cc1ccc(S(=O)(=O)N2CCN(C(=O)c3cccs3)CC2)cc1C	-2	8.0	8%	16	.
COc1cc(Cc2nccc3cc(OC)c(OC)cc23)c(S(=O)(=O)O)cc1OC	?	42*	.	.	.

Gathered by group: the entries above containing a thiophene ring, fused or not.
SMILES	Mtb bLac sens	RecA intein inh	Mtb H37Rv	Arbovirus anti	YopH PTP inh	others
Cn1nnnc1SCC(=O)NCc1cccs1	-10	11	-8%	1	-14
Brc1cc(Cc2nnc(-c3ccccc3)o2)c(Br)s1	-7	7.5	10%	.	.
COc1cccc(Nc2ncnc3sc(C)cc23)c1	-6	-2.2	.	.	.
CC(=O)Nc1ccc(Oc2sc(C(=O)c3ccccc3)c(N)c2C#N)cc1	5	15	14%	-10	-7
O=[N+]([O-])c1sccc1CS(=O)(=O)c1ccccc1	-5	0.2	1%	.	.
CCC1CCCCN1CCCNC(=O)C(C)n1nc(C)c2sc3ccccc3c2c1=O (stereo unspecified)	-1	2.9	.	.	.
CC1Cc2ccccc2N1C(=O)CSc1nnc(NC(=O)Cc2cccs2)s1 (stereo unspecified)	-3	-6.2	-8%	7	-20
Cc1ccc(S(=O)(=O)N2CCN(C(=O)c3cccs3)CC2)cc1C	-2	8.0	8%	16	.

Carrying on.
SMILES	Mtb bLac sens	RecA intein inh	Mtb H37Rv	Arbovirus anti	YopH PTP inh	others
O=C(OCc1ccccc1)/C(=C/c1ccc(Cl)cc1)NC(=O)c1ccccc1Cl	4	-1.4	2%	-9	-38
COC(=O)c1ccc(S(=O)(=O)NCc2ccc(S(N)(=O)=O)cc2)o1	-2	-5.3	0%	.	.
CCCCn1nnc(NC(=O)c2ccc([N+](=O)[O-])cc2Cl)n1	-3	1.0	1%	.	.
O=C(CSc1ccc([N+](=O)[O-])cn1)Nc1ccc2c(c1)OCCO2	88	-1.4	51µM*	3	.
